Assay outcomes from PubChem.
UCH37 inh – inhibitors of human UCH37 deubiquitinase, primary screen, biochemical, Ub-AMC cleavage, fluorescence. AID 588478, 2011. purified proteasome/UCH37. Ubiquitin carboxyl-terminal hydrolase isozyme L5 (Homo sapiens), Q9Y5K5. inhibition, % (no concentration beside the values). 330,000 tested, 0.33% active;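 active = mean of two replicates above 20%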;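 also: 0% = compound-free wells with enzyme and 100% = wells lacking proteasome; stock transfer was 100 nL into about 20 µL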
Target sequence (Q9Y5K5 whole entry, looked up): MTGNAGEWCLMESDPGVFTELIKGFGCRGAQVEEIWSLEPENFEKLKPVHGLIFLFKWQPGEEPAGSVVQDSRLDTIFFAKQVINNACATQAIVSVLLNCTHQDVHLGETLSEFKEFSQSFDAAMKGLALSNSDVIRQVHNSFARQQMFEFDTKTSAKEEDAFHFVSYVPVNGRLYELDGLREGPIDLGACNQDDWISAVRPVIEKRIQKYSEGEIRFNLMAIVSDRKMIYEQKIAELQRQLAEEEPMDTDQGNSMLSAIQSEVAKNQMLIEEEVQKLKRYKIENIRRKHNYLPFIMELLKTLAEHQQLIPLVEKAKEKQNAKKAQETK
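assay system = human UCH37 enzyme supplied as purified proteasome complex | amount = proteasome at 0.15 nM in the dispensed enzyme solution | schedule = 30 min compound-proteasome preincubation then 25 min substrate reaction, room temperature | measured by = fluorescence, ex 355 nm, em 460 nm | benchmarks = no-proteasome wells (full inhibition) and compound-free wells (no inhibition)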
Beta2AR agonist – beta2AR agonists driving receptor internalization, primary screen, cell-based, FAP fluorogen, flow cytometry | Am2.2-beta2AR cells; reference of the scale not given here | response, % (concentration not given with the values) | Beta-2 adrenergic receptor (Homo sapiens), P07550 | 340,000 tested, 0.43% active;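 active = response above a set limit, near 3 SD of response in nonfluorescent compounds, cut at about 42% in these data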;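 also: stock transfer was 100 nL into about 11 µL; a reference agonist was the positive control; negative values mostly stem from fluorescent compounds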
FGF22 binding – binders of human FGF22 protein, primary screen, FGF22 synaptogenesis inhibitor project, biophysical, thermal shift, single point; Fibroblast growth factor 22 (Homo sapiens), Q9HCT0; recombinant FGF22 thermal shift, SYPRO orange fluorescence; percent of sucrose octasulfate shift, DMSO zero; calls only at 9.99 µM; 340,000 tested, 1.5% active; AID 651658, 2012;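 active = melting point raised past a set limit in the mean and every replicate; inconclusive = no clear call; three in four hits are not shown here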
ALR inh – inhibitors of human ALR sulfhydryl oxidase, primary screen, biochemical, H2O2 detection, HRP-luminol luminescence, single point. purified ALR, DTT oxidation. inhibition, % (no concentration beside the values). 290,000 tested, 3.8% active;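 active = mean and each replicate at 75% or more; inconclusive = only one of the two met; inactive = neither met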;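 also: stock transfer was 7.5 nL into about 7.5 µL; 0% = neutral wells and 100% = wells with inactivated enzyme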
Target sequence (P55789 whole entry, looked up): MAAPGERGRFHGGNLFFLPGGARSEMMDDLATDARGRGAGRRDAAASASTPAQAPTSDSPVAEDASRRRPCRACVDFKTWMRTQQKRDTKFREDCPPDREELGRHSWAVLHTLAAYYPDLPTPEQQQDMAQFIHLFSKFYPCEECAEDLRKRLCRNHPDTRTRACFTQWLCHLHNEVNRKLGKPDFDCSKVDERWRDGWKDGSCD
HNF4A DNA FP – change in binding of human HNF4A to DNA, primary screen, biochemical, fluorescence polarization, FITC-DNA | activity change, % at 10 µM | Hepatocyte nuclear factor 4-alpha (Homo sapiens), P41235 | 360,000 tested, 0.3% active | 1 h; in the data active = activity change above about 30%, passing the limit was not always enough;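 also: controls were the assay level and a saturating level of protein; the project sought stronger binding though the title names inhibitors; some compounds called inactive have numbers as strong as hits; positive values seem to mean higher polarization but the record does not say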
Target sequence (P41235 whole entry, looked up): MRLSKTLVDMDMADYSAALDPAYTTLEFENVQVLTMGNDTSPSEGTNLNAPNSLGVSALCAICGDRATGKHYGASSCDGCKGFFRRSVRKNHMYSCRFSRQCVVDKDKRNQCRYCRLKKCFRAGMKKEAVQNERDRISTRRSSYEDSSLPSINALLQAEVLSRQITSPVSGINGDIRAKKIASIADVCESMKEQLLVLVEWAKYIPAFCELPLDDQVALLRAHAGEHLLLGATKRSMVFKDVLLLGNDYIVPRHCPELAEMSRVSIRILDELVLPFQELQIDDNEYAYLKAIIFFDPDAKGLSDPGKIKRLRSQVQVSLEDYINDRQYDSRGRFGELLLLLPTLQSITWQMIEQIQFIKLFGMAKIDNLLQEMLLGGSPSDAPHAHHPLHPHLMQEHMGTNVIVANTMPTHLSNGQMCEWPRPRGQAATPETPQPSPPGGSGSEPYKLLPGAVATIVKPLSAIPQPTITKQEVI
Ecoli growth – E. coli growth inhibition, primary screen, OD600. Escherichia coli growth, 23 h; hits give low values. OD600 absorbance (test concentration not listed). 330,000 tested, 0.21% active;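 active = OD600 absorbance below the run mean of sample wells minus 3.6 SD, in any replicate, cut at about 0.56 in these data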;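 also: stock transfer was 300 nL into about 60 µL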
Ecoli rRNA inh – reduced GFP signal of wild-type E. coli, primary screen, bacterial rRNA inhibitor project, GFP/RFP fluorescence, OD600, single point | GFP signal change (wild-type ribosome), % (test concentration not listed) | E. coli WT GFP vs humanized-ribosome RFP mutants, 24 h; hits give low values; DMSO median 0, no signal -100 | 350,000 tested, 1.6% active | AID 720706, 2013;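 active = significant combined selectivity score with lowered wild-type GFP, culture density cut under 30%, mutant RFP and density less affected; inactive = any of these conditions unmet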; also: one replicate is shown; some compounds called inactive have numbers as strong as hits
Ecoli rRNA inh OD600 – recorded beside Ecoli rRNA inh, whose call it bears; OD600 change, %; measured here: OD600 growth;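 optical density of the mix in the first replicate; 0 = DMSO median and -100 = no signal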
Ecoli rRNA inh RFP – recorded beside Ecoli rRNA inh, whose call it bears; RFP signal change, %; measured here: RFP humanized mutant strains;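 first replicate; 0 = DMSO median and -100 = no signal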
* hit, by the source's call; i = inactive; ? = inconclusive; . = not tested or not shown; & = joins results of further samples. A portion of the library; the hit share may differ from the screen's.

canonical_smiles	UCH37 inh	Ecoli rRNA inh OD600	ALR inh	Ecoli growth	Ecoli rRNA inh	Ecoli rRNA inh RFP	HNF4A DNA FP	FGF22 binding	Beta2AR agonist
Cc1cccc(NC(=S)NNC(=O)c2ccco2)c1	2.9	.	15	0.62	.	.	2.6	.	1
CCSc1nnc(NC(=O)CSc2nnc(CNC(=O)c3ccc(OC)cc3)o2)s1	1.7	.	.	0.71	.	.	1.1	.	7
CCOC(=O)CC(NC(=O)c1cc2ccccc2oc1=O)c1cccc([N+](=O)[O-])c1 (stereo not drawn)	-7.3	10	.	0.69	5	5.3	-1.3	i	-4
CCOc1ccc(-n2c(-c3ccco3)nc3c(cnn3-c3ccc(C)cc3)c2=O)cc1	-20	5	0	0.74	9	4.4	-1.3	i	-7
CC1Cc2ccccc2N1C(=O)CSc1nnc2c(n1)[nH]c1ccc(F)cc12 (stereo not drawn)	4.5	.	-4	0.76	.	.	-0.5	.	-8
CCOC(=O)[C@H]1[C@H]2COc3ccc(Br)cc3[C@@H]2N2C(=O)c3ccc(F)cc3NC(=O)[C@@]12C	5.2	-28	.	.	-11	-14	1.0	i	4
O=C(NC1CCCC1)C(c1ccc(F)cc1)N(Cc1ccc(F)cc1)C(=O)CCl (stereo not drawn)	2.6	1	4	0.64	7	-2.4	-1.1	i	0
CC(C)N(C(=O)[C@H]1C[C@H](CC(=O)NCCCn2ccnc2)C(=O)N2CCc3c([nH]c4cc(CCC(=O)N(C)C)ccc34)[C@]12C)C(C)C	-0.4	8	.	0.7	15	2.8	-0.6	i	-10
C=CCc1ccccc1OCC(O)CN(C(C)C)C(C)C (stereo not drawn)	0.7	.	-16	0.71	.	.	0.2	.	9
COC(=O)c1sccc1S(=O)(=O)N1CCCC(N(C)CCc2ccccn2)C1 (stereo not drawn)	.	7	-4	.	-2	2.1	2.8	i	-2
COc1ccc(N2C(=O)CC(n3c(CCCCO)nc4ccccc43)C2=O)cc1 (stereo not drawn)	0.7	.	-3	0.76	.	.	-3.8	.	-1
O=C(NCc1ccc(F)cc1)c1cc(C2CCCCN2S(=O)(=O)c2ccc(F)cc2F)on1 (stereo not drawn)	.	-14	.	.	-1	-1.4	-0.5	i	.
C#Cc1ccc([C@@H]2C=C(C(=O)NCc3nc4ccccc4[nH]3)O[C@H](OCC)[C@H]2CCCO)cc1	0.3	-10	-3	.	-8	-0.7	-0.7	i	-6
O=C1CNC(=O)/C(=C\c2ccc(F)cc2)N1	0.8	20	.	0.63	11	0.5	-0.3	i	-4
O=C(NC(=S)Nc1cc(Cl)ccc1N1CCOCC1)c1ccc(-c2cccc(Cl)c2)o1	4.3	.	4	0.71	.	.	0.1	.	-4
CC(C)/C=N/NC(=O)c1cccc(N2CCCC2=O)c1	.	5	.	.	4	-0.5	1.7	i	-5
Cc1c(Cl)ccc2c1NC(=O)C21NC(CCC(N)=O)[C@H]2C(=O)N(c3ccc(Cl)cc3)C(=O)[C@H]21 (stereo partly drawn)	2.8	.	-3	0.73	.	.	4.8	.	-3
Cc1ccc(S(=O)(=O)CCc2ccccn2)cc1	-0.8	.	-9	0.72	.	.	-0.7	.	0
CC1=Nc2ccccc2/C1=C/c1nc(-c2ccc(C)s2)oc1O	4.7	12	5	0.65	18	9.2	55*	i	-458
CCOc1ccc(-n2c(Cc3cc(=O)[nH]c(=O)[nH]3)nnc2SCC)cc1	4.0	.	1	0.68	.	.	3.0	.	1
O=C(CNC(=O)c1cccs1)OCc1c(F)cccc1Cl	2.9	3	4	0.66	-1	0.6	-4.3	i	-3
CCOC(=O)c1ccc(N/C=C\C(=O)c2cccc(OC)c2)cc1	-18	.	-2	0.7	.	.	-2.4	.	-1
COc1ccc(NC(=O)C2=C(C)C(=O)OC23CCC(C)CC3)cc1Cl (stereo not drawn)	-0.6	.	-14	0.67	.	.	0.2	.	3
C#CCOCCOCCOCCNc1nc(N2CCN(C(=O)[C@H](CCC(=O)O)n3cc(CN)nn3)CC2)nc(N2CCN(C(=O)[C@H](CCCCN)n3cc([C@@H](N)CC(N)=O)nn3)CC2)n1	1.3	12	0	0.72	20	0.4	1.3	i	-5
O=C1CCc2cc(S(=O)(=O)Nc3ccccc3)ccc2N1	-0.3	-2	-3	0.69	2	-0.6	4.4	i	1
COCC1CCN(Cc2nc(COc3ccccc3)no2)C1 (stereo not drawn)	2.1	9	-14	0.71	3	-0.7	2.9	i	2
COC(=O)[C@H]1C[C@H]2[C@@H]3CC[C@H]4C[C@@H](OC)CC[C@]4(C)[C@H]3CC[C@]2(C)[C@@]2(CCCO2)O1	-0.7	11	.	0.69	22	0.5	1.1	i	8
COc1ccccc1N(CC(=O)NCc1cccnc1)S(C)(=O)=O	2.4	.	-1	0.7	.	.	1.0	.	-5
CSC1=NCCN1S(=O)(=O)c1ccc(NC(C)=O)cc1	2.4	19	-24	0.69	12	1.3	-0.1	i	3
C=C(C)CN(CC)CCC(=O)Nc1ccc(OC)cc1OC	3.9	.	-39	0.71	.	.	-1.0	.	-6
CCOC(=O)c1c(N2C(=O)Nc3ccccc3N2O)sc2c1CCCC2	7.2	-13	93*	0.7	-19	-7.6	0.3	i	18
COC(=O)[C@@H]1C[C@@]2(O)[C@H](O)[C@H](O)[C@H](O)C[C@H]2N1C/C=C/c1ccccc1	1.0	16	-1	.	2	8.7	0.7	i	-2
CC(=O)c1ccc(NC(=O)C2CCCN(C(=O)c3ccc(Cl)cc3)C2)cc1 (stereo not drawn)	2.5	-20	-7	0.67	-15	-1.4	0.8	i	6
CSCCC(NC(=O)c1ccco1)C(=O)N(C)CC(=O)Nc1c(Cl)cccc1Cl (stereo not drawn)	1.9	7	1	0.66	5	1.6	0.9	i	-3
COc1ccccc1N(CC(=O)NCCSCc1cccc(Cl)c1)S(C)(=O)=O	3.7	-5	9	0.67	-5	0.8	-3.6	i	3
COC(=O)CCC(=O)COc1ccc(OC)cc1C#N	2.7	.	-4	0.73	.	.	0.1	.	-3
Cc1ccc2cc(CN(CCN(C)C)C(=S)Nc3ccccc3)c(=O)[nH]c2c1C	-0.1	-4	-5	0.69	-8	3.3	-0.3	i	1
CC(C)c1ccc(CN(C(=O)c2cccs2)C2CCS(=O)(=O)C2)cc1 (stereo not drawn)	5.0	-13	-2	0.65	-4	3.5	2.7	i	-5
COc1cccc(N2CCN(C(=O)c3[nH]c(C)c(C(C)=O)c3C)CC2)c1	0.5	.	54	0.72	.	.	2.8	.	-4
COc1ccc(OC)c(C2=C/C(=C/c3ccccn3)C(=O)O2)c1	0.6	5	-28	0.65	12	5.8	5.8	i	7
C=CCNc1nc(SC)nc2ccsc12	2.8	.	-5	0.71	.	.	-1.1	.	-7
C=CCn1c(O)c(N=NC(=S)Nc2cccc(OC)c2)c2ccccc21	3.6	.	-5	0.72	.	.	3.0	.	3
OC(c1cc(Cl)cc(Cl)c1)c1ncc(-c2ccccc2F)[nH]1 (stereo not drawn)	.	-81	.	.	-62	-22	3.3	i	.
Cc1ccccc1-n1nc(C)c(N=O)c1N	4.7	.	.	0.65	.	.	1.6	.	-3
COC(=O)CSc1nnc(CSc2nc(C)cc(C)n2)o1	0.0	3	-13	0.71	2	-0.3	2.9	i	-2
CCC(C(=O)NCc1ccccc1)n1c(C2CCN(C(C)=O)CC2)nc2ccccc21 (stereo not drawn)	.	6	.	.	10	-0.1	-1.1	i	.
O=C(NCCc1c[nH]c2ccccc12)/C(=C\c1cccnc1)NC(=O)c1ccccc1F	7.1	1	1	0.68	-8	-0.3	-4.2	i	-7
O=C(CCc1ccccc1)N1CCN(c2ccc(F)cc2)CC1	4.2	7	86*	0.7	7	7.6	2.9	i	5
CC(C)(C)CCN1CCC(CN2CCNC2=S)CC1	.	12	.	.	8	0.2	-5.8	i	.
O=C(Nc1ccccc1C(=O)NC(Cc1c[nH]c2ccccc12)C(=O)O)c1ccccc1 (stereo not drawn)	.	-8	.	.	-2	-4.9	-2.2	i	1

An excerpt from above in order of SMILES length, smallest number first.
canonical_smiles	UCH37 inh	Ecoli rRNA inh OD600	ALR inh	Ecoli growth	Ecoli rRNA inh	Ecoli rRNA inh RFP	HNF4A DNA FP	FGF22 binding	Beta2AR agonist
CCOC(=O)c1c(N2C(=O)Nc3ccccc3N2O)sc2c1CCCC2	7.2	-13	93*	0.7	-19	-7.6	0.3	i	18
COc1cccc(N2CCN(C(=O)c3[nH]c(C)c(C(C)=O)c3C)CC2)c1	0.5	.	54	0.72	.	.	2.8	.	-4
Cc1ccc2cc(CN(CCN(C)C)C(=S)Nc3ccccc3)c(=O)[nH]c2c1C	-0.1	-4	-5	0.69	-8	3.3	-0.3	i	1

The listing continues:
canonical_smiles	UCH37 inh	Ecoli rRNA inh OD600	ALR inh	Ecoli growth	Ecoli rRNA inh	Ecoli rRNA inh RFP	HNF4A DNA FP	FGF22 binding	Beta2AR agonist
N#CCSc1nnc(Nc2ccccc2)s1	2.3	.	-1	0.73	.	.	3.5	.	2
Nc1cc(S(=O)(=O)N2CCCCC2)ccc1N1CCOCC1	-0.4	1	.	0.71	0	-4.1	-1.3	i	-4
O=C(C[C@H]1C/C=C\C[C@@H](Cc2ccc(F)cc2)C(=O)O[C@H](c2ccccc2)CNC1=O)NCCO	2.2	15	-8	.	5	15	-2.1	i	3
COc1ccccc1C(=O)NC(CCSC)C(=O)NCC(c1ccco1)N(C)C (stereo not drawn)	-4.0	.	-14	0.66	.	.	3.0	.	-3
CCSc1nnc(NC(=O)CSc2nccn2-c2cccc(C)c2C)s1	-2.8	.	-4	0.7	.	.	.	.	.
Cc1ccc(-c2nnc(N3CCN(C(=O)c4cccs4)CC3)c3ccccc23)cc1	5.4	-31	.	0.69	-23	-6.7	0.5	i	17
N#Cc1ccc(-c2csc(NC(=O)c3ccc(S(=O)(=O)N4CCc5ccccc5C4)cc3)n2)cc1	-60	13	-2	0.69	8	3.9	3.6	i	11
CS(=O)(=O)c1cccc(-c2nnc(NC(=O)c3ccc4ncsc4c3)o2)c1	5.8	-2	-5	0.67	3	2.1	-0.9	.	2
O=C(CNC1CCCCCC1)Nc1ccccc1N1CCCCC1	5.5	.	7	0.69	.	.	-0.4	.	7
COc1cc(OC)cc(C(=O)N[C@H](C(=O)Nc2nnc(C3CC3)s2)C(C)C)c1	-1.6	6	-24	0.69	16	-3.7	1.9	i	-2
CCOC(=O)[C@@H]1[C@H]2COc3cc(OC)ccc3[C@H]2N2C(=O)N(c3ccc(Cl)cc3)C(=O)[C@]12C	1.0	12	4	.	0	-3.0	-0.9	i	-1
Cc1noc(C)c1S(=O)(=O)Nc1ccc2c(c1)C(=O)N([C@H](C)CO)C[C@H](C)[C@H](CN(C)S(=O)(=O)c1ccc(Cl)cc1)OCCCC[C@@H](C)O2	.	3&9	.	.	0&30	-1.6&3.3	3.7	i	.
CCCn1c(SCC(=O)Nc2c(CC)cccc2CC)nnc1C(C)C	-0.4	.	-1	0.7	.	.	2.0	.	2
OCCN1c2ccccc2CCc2ccccc21	1.1	2	?	0.65	-1	0.9	3.2	i	5
COc1ccc(N(CC(=O)NN=C2CCCC2)S(=O)(=O)c2ccccc2)cc1Cl	1.7	.	-2	0.72	.	.	1.1	.	3
